# High-throughput results as filed in PubChem BioAssay.
# MgrA DNA FP = alters Staphylococcus aureus MgrA binding to DNA. 0.13% of 84,000 active. AID 602314. inhibition, %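 (about 10 µg/mL by stock and volumes)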. fluorescence polarization;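 active = above 50% in either of two replicates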;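 also: 0% = protein plus DNA without compound and 100% = DNA alone without protein; higher means less MgrA bound to DNA so lower polarization; one replicate is shown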
# S aureus helic = S. aureus DNA helicase inhibition; purified S. aureus helicase, fluorescence unwinding assay; about half of the hits fall short of the stated cut; inhibition, %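 (tested at about 80 µM)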; 0.05% of 120,000 active;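 active = both duplicates at 50% or more, or one of them with a favoured structure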;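 also: 0% = mean of negative control wells and 100% = mean of positive control wells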
# * marks the source's active call; other numbers are inactive results; . = no result given.
Structure	S aureus helic	MgrA DNA FP
O=C(O)CC(CP(c1ccccc1)c1ccccc1)C(=O)O (centres undefined)	16	-0.9
Cc1ccc(C)c2[nH]c(=O)c(CN(CCCN3CCCC3=O)S(=O)(=O)c3ccc(F)cc3)cc12	-1	-1.1
O=C(CCNS(=O)(=O)c1cccc2nsnc12)N1CCc2ccccc21	8	-0.6
COc1ccc(-c2nnc(N3CCOCC3)c3ccccc23)cc1	.	1.6
Cc1ccccc1/C=C1\CN(C)C/C(=C\c2ccccc2C)C1=O	10	-0.4
CCn1c(SCC(=O)c2ccccc2)nnc1-c1ccncc1	15	.
CCS(=O)(=O)N1CCCC(C(=O)NC2CC2)C1 (centres undefined)	9	0.7
N#C/C(=C\c1c(F)cccc1Cl)S(=O)(=O)Cc1ccco1	.	-2.0
CC(=O)Oc1cc(OC(C)=O)c2c(-c3ccccc3)cc(=O)oc2c1	20	.
COc1ccc(CCNC(=O)c2cc(C(C)C)on2)cc1OC	1	.
Cc1c(C)c(C)c(C(=O)c2ccccc2)c(C)c1C	.	-1.2
COc1oc(-c2ccc(F)cc2)nc1C(F)(F)F	7	0.3
Cc1cc(Br)ccc1-n1c(Sc2c([N+](=O)[O-])cc(C(F)(F)F)cc2[N+](=O)[O-])nc2ccccc2c1=O	.	-1.0
O=C(Nc1cccnc1)C(c1ccccc1)c1ccccc1	-16	.
OCC1CCCN(c2ncnc3sc(-c4ccccc4)cc23)C1 (centres undefined)	9	.
CCCCCCCCCCCCCCCCCCOC[C@H](COP(=O)([O-])OCC[N+](C)(C)C)OC	.	0.0
CC(=O)Nc1ccc2nc(SCc3c(C)cc(C)cc3C)sc2c1	8	1.4
COc1cccc(NC(=O)Cn2c(=O)n(-c3ccccc3)c(=O)c3sccc32)c1	16	.
Cc1c(C)n(C(=O)CN2CCN(c3ccc(F)cc3)CC2)c2ccccc12	25	.
CC(C)NC(=O)C(C)n1cccc1C(=O)c1ccccc1 (centres undefined)	10	0.3
Cc1ccc(NC(=O)c2ccco2)c(NC(=O)C(C)C)c1	-5	-1.8
COc1cccc(/C=N/NC(=O)c2cccc(OC)c2)c1	.	-0.5
O=C(O)Cc1ccc2c(c1)[nH]c1ccccc12	3	.
CCN(CCN(C)C)Cc1ccc(NC(C)=O)cc1	28	0.3
Fc1ccc(-c2cc3ccccc3[nH]2)cc1Cl	.	-1.3
Nc1nnnn1CC(=O)N/N=C/c1ccc(-c2cccc(Cl)c2)o1	6	-0.2
Cc1cccc(C(=O)Nc2ccc3[nH]c(=O)[nH]c3c2)c1	12	-1.4
O=C(O)c1ccccc1NCCO	20	-0.4
CC1=C(C)CS(=Nc2ccccc2)N(S(=O)(=O)c2ccccc2)C1 (centres undefined)	20	.
C=CCSc1nnc(NC(=O)CCNC(=O)c2ccco2)s1	-6	.
Clc1ccc(-c2nc(-c3ccc(Br)cc3)cs2)cc1	.	-1.2
CCOC(=O)Cc1nc2ccccc2[nH]1	16	-2.9
CCOC(=O)CSc1nnc(NC(=O)C23CC4CC(CC(C4)C2)C3)s1	-16	.
O=C(Oc1ccccc1-c1cnc2ccccc2n1)c1ccc(F)cc1	13	-0.8
CC(C)Oc1ccc(C(=O)Nc2sccc2C#N)cc1	-20	.
O=C(NCC1CCCO1)NC(=O)c1ccccc1 (centres undefined)	16	0.2
CCc1nnc(SCc2cccc(OC)c2)c2cc3occc3n12	-22	.
COc1ccncc1C(=O)Nc1ccc(F)cc1F	.	-1.7
CCC1CCCCN1C(=O)c1cc(-c2ccc(C)cc2)on1 (centres undefined)	2	0.6
C/C=C/C(=O)Oc1ccc(Cl)cc1	12	-1.3
CC(=O)Nc1cccc(C(=O)NC(C)c2ccccc2)c1 (centres undefined)	14	6.7
O=C1C=CC(=O)N1c1ccc(-n2nc(C(F)(F)F)cc2C(F)(F)F)cc1	.	4.5
CCOC(=O)C1CCN(C(=S)NC2CC3C=CC2C3)CC1 (centres undefined)	.	-1.4
CCc1cccc2c(C=C(C#N)C#N)cn(CC(=O)N3CCCCCC3)c12	4	-3.0
Cc1cccc2nc(Cn3c(=O)n(CCC(=O)NCc4ccco4)c(=O)c4sccc43)cc(=O)n12	-33	.
Cc1ccc(S(=O)(=O)/N=C(\CN2CCOCC2)N2CCOCC2)cc1	16	-0.8
CC1CCCCC1NC(=O)c1cc2sccc2n1C (centres undefined)	8	.
Cc1cc(NC(=O)Cc2cc(F)cc(F)c2)no1	.	-1.9
CC1CN(P2(=O)C=C(c3ccccc3)OC(c3ccccc3)=C2)CC(C)O1 (centres undefined)	6	.
N=C(N)N=Nc1ccc(O)cc1	24	2.5
CC(=O)Oc1cc(C)c2c(c1)oc(=O)c1ccccc12	3	2.1
CCC(=O)OC1CSc2nc3ccccc3n2C1 (centres undefined)	5	0.1
O=C(Cn1c(=O)oc2ccccc21)N(C1CCCCC1)C1CCCCC1	7	.
COc1cccc2cc(C(=O)NC3=C(C#N)CCC3)c(=O)oc12	5	0.7
O=C(CSc1ncn[nH]1)Nc1ccccc1-c1ccccc1	-18	-0.6
COc1ccc(NCC(=O)N/N=C/C2=CCC3CC2C3(C)C)cc1 (centres undefined)	6	.
Cc1ccc(NC(=O)CSC2=C(C#N)C3(CCCCC3)C(C#N)C(=O)N2)c(C)c1 (centres undefined)	-22	.
CCC(=O)c1ccc(OCC(=O)NC2(C#N)CCCCC2)cc1	-4	.
CC(C)Cn1[nH]c(CC(=O)NN)cc1=O	-4	.
CC(C)NC(=O)c1ccc(NC2=NC3CS(=O)(=O)CC3S2)cc1 (centres undefined)	-2	.

# Other entries follow.
Structure	S aureus helic	MgrA DNA FP
Fc1cccc(Cl)c1-c1nn[nH]n1	13	-2.8
N/N=C(\c1ccccc1)c1cc(Br)ccc1N	-14	3.9
S=c1[nH]nc(Cc2cccc3ccccc23)o1	-1	2.5
COc1ccccc1-c1noc(-c2cccc(Cl)c2)n1	25	-1.0
CC1(C)OC(=O)CC1C(=O)O (centres undefined)	9	-4.7
Cc1nc(N)sc1C	23	.
O=C(Cc1n[nH]c(=O)c2ccccc12)OCc1cc(=O)n2cc(Br)ccc2n1	-12	.
c1ccc2c(c1)CC(N1CCOCC1)C2	2	-0.2
Cc1ccc(NC(=O)Cn2nnc(S(=O)(=O)c3ccc(C(C)(C)C)cc3)c2N)c(C)c1	12	-4.5
CCn1ncc(C2=NOC(C(=O)NCC(C)C)C2)c1C (centres undefined)	10	-1.1
COc1ccc(-c2cc(OC(=O)c3ccccc3)cc3sc(=O)oc23)cc1	7	0.1
N=c1c(C(=O)NCc2ccco2)cc2c(=O)n3ccccc3nc2n1CCCO	-31	.
COC(=O)/C=C1\Nc2ccccc2C(=O)NC1=O	.	-3.3
CC(C)N(Cc1nc(-c2ccccc2)no1)C(=O)C1CCCCC1	9	0.6
CSc1sc(-c2nc(C)cs2)c(C)c1-c1ccn[nH]1	.	0.9
Cc1c(C#N)c2nc3c(c(-c4ccccc4)c2n1-c1ccccc1)CCCC3	19	1.0
CCOC(=O)c1c(C(=O)OCC)c2n(c1-c1ccccc1)Cc1ccccc1-2	-1	-0.2
O=C(/C=C/c1ccco1)Nc1ccccc1C(=O)c1ccccc1	16	.
O=C(C(=S)N1CCOCC1)c1c[nH]c2ccccc12	8	26
CC(C(=O)N1CCCCC1)n1sc2ccccc2c1=O (centres undefined)	9	.
CCCCN(C)Cc1nc2ccccc2n1C	-7	2.0
c1ccc2sc(N3CCN(Cc4nnnn4C4CCCC4)CC3)nc2c1	9	1.6
CC1CC(NC(=O)c2ncn[nH]2)CC(C)(C)C1 (centres undefined)	3	0.5
CN1CCN(C(=O)CN2C(=O)S/C(=C\c3ccccc3F)C2=O)CC1	-8	.
CC(=O)OCc1ccccc1Oc1cccc(Cl)c1	.	-1.1
COc1ccc(/C=C(\C#N)c2cccc(Cl)c2)c(OC)c1	.	-3.0
C=C(C)C(=O)Oc1cccc(N2C(=O)C3C4C=CC(C4)C3C2=O)c1 (centres undefined)	-2	.
O=C(CC12CC3CC(CC(C3)C1)C2)NCc1cccc(Cl)c1	.	4.7
COc1ccc(O)c(C=Nc2ccc3c(c2)OCO3)c1	13	.
O=C(O)c1ccc(NC(NC(=O)c2ccco2)C(=O)c2ccccc2)cc1 (centres undefined)	20	.

# Arranged by molecular weight (descending): some entries from above
Structure	S aureus helic	MgrA DNA FP
N=c1c(C(=O)NCc2ccco2)cc2c(=O)n3ccccc3nc2n1CCCO	-31	.
O=C(/C=C/c1ccco1)Nc1ccccc1C(=O)c1ccccc1	16	.
CC(C(=O)N1CCCCC1)n1sc2ccccc2c1=O (centres undefined)	9	.
O=C(C(=S)N1CCOCC1)c1c[nH]c2ccccc12	8	26
Cc1nc(N)sc1C	23	.

# (more compounds)
Structure	S aureus helic	MgrA DNA FP
Nc1cc2ccccc2cc1C(=O)O	18	.
CCN(CC)c1ccc(NC(=O)C(C)(C)C)cc1	-2	.
Cn1ccsc1=NC(=O)/C=C/c1ccccc1F	-18	.
O=C(c1ccco1)N1CCN(C(=O)C2CCN(c3nc4ccccc4n3Cc3ccc(F)cc3)CC2)CC1	18	.
O=C1c2ccccc2C(=O)N1CC1NCCc2ccccc21 (centres undefined)	10	.
CCOC(=O)c1c(S(=O)(=O)N(C)c2ccc(C)cc2)c(C)n(C)c1C	3	.
Cc1ccc(N2C(=O)C3C4C=CC(CNC(=O)OCc5ccccc5)(O4)C3C2=O)cc1 (centres undefined)	-1	0.7
CCOC(=O)Cc1csc(Nc2ccc(Cl)cc2)n1	10	.
O=C(O)c1ccc(COCOCc2ccc(C(=O)O)o2)o1	.	-0.6
Cc1cc(C)c(S(=O)(=O)N2CC(C)OC(C)C2)c(C)c1 (centres undefined)	-1	.
Cc1cc(C)c(NC(=O)c2cn3c4c(c(N5CCN(C)CC5)c(F)cc4c2=O)OCC3C)c(C)c1 (centres undefined)	-2	.
Cn1c(=O)n(Cc2ccc(Cl)cc2)c2ccccc21	22	.
COC(=O)c1sccc1N	-16	.
O=C(NC1CC1)c1cc(S(=O)(=O)N2CCCCC2)ccc1N1CCOCC1	27	.
NCC12CC3CC(CC(C3)C1)C2	8	.
N#Cc1ccccc1NC(=O)COC(=O)c1ccccc1	5	1.8
O=C(NCc1cccnc1)c1cnn2c(C(F)F)cc(-c3ccccc3)nc12	9	1.1
CSCCC(=O)Nc1cc(S(C)(=O)=O)ccc1Cl	-9	.
O=C1c2cccc3cccc(c23)C(=O)N1CCN1CCN(S(=O)(=O)c2ccc(F)cc2)CC1	.	-1.2
Cc1ccc(C)n1-c1sc2c(c1C(=O)NNC(=O)c1ccc(Cl)cc1)CCCC2	.	1.0
CCC(CC)C(=O)Nc1cccc(C(=O)NC(C)(C)C)c1	20	-0.1
COc1ccc(-c2noc(CCC(=O)NC(C)C)n2)cc1OC	4	.
CC1C=CCC2C(=O)N(c3cccc(O)c3)C(=O)C12 (centres undefined)	11	-0.3
CN1CCSc2ccc(C(=O)NCc3ccc4c(c3)OCO4)cc21	-5	.
CC(C)(C)c1ccc(OCCC(=O)Nc2ccc(N3CCOCC3)cc2)cc1	12	-0.5
CNC(=O)CN(c1ccccc1)S(=O)(=O)c1ccc(OC)cc1	-2	3.6
O/N=C/c1ccc2ccccc2c1	14	1.1
O=CN1CCN(C(=O)c2ccccc2)CC1	-6	-0.8
Cc1ccc(NS(C)(=O)=O)cc1NC(=S)Nc1cccc(C(F)(F)F)c1	.	-1.7
CCOc1ccc(CNC2CCCc3ccccc32)cc1 (centres undefined)	3	-3.0

# Shown with the structure last: two of the compounds above
S aureus helic,MgrA DNA FP,compound
4,.,COc1ccc(-c2noc(CCC(=O)NC(C)C)n2)cc1OC
12,-0.5,CC(C)(C)c1ccc(OCCC(=O)Nc2ccc(N3CCOCC3)cc2)cc1

# Other compounds follow:
Structure	S aureus helic	MgrA DNA FP
O=C(Nc1cc(Oc2ccccc2)cc([N+](=O)[O-])c1)c1cc2n(n1)C(C(F)(F)F)CC(c1cccs1)N2 (centres undefined)	.	2.9
O=C1/C(=C/c2ccccc2)Oc2c1ccc(O)c2CN1CCOCC1	-20	.
COC(=O)CSc1ncnc2c1cnn2-c1ccccc1	18	-1.5
O=C(Cc1ccccc1)Nc1ccccc1CO	16	1.4
CCOC(=O)c1cn(Cc2ccc(Cl)cc2Cl)c2cc(C)nn2c1=O	-43	.
C1=Cc2nonc2C2C=C(c3ccccc3)N=C12 (centres undefined)	-32	7.2
CC1(C)CC(N=Cc2ccccc2O)CC(C)(C)N1	2	-1.2
CCOC(=O)C(=NCc1ccco1)NNc1cccc(C(F)(F)F)c1	-1	.

# Gathered by group, those above with a tert-butyl group (four)
Structure	S aureus helic	MgrA DNA FP
Cc1ccc(NC(=O)Cn2nnc(S(=O)(=O)c3ccc(C(C)(C)C)cc3)c2N)c(C)c1	12	-4.5
CCN(CC)c1ccc(NC(=O)C(C)(C)C)cc1	-2	.
CCC(CC)C(=O)Nc1cccc(C(=O)NC(C)(C)C)c1	20	-0.1
CC(C)(C)c1ccc(OCCC(=O)Nc2ccc(N3CCOCC3)cc2)cc1	12	-0.5

# Only part of the results is shown. The share of hits here may be higher or lower than overall.
